From PubChem BioAssay
AmpC inh no det: Promiscuous and Specific Inhibitors of AmpC Beta-Lactamase (assay without detergent). AID 585, 2007. P00811. 71,000 tested, 1.8% active. AmpC nitrocefin hydrolysis, absorbance 480 nm, no detergent; potencies from a single point are estimates. Potency, µM (top dose mostly 28.7 µM), for inactives: top-dose activity change, negative = inhibition; active = falling curve, for most hits resting on a single point; inconclusive = weak or doubtful change; inactive = flat or rising curve; further: % of control where 0% means no effect; about half of the hits show no inhibition at the top dose; a quarter of the inactives give rising signals
Target sequence (P00811 whole entry, looked up): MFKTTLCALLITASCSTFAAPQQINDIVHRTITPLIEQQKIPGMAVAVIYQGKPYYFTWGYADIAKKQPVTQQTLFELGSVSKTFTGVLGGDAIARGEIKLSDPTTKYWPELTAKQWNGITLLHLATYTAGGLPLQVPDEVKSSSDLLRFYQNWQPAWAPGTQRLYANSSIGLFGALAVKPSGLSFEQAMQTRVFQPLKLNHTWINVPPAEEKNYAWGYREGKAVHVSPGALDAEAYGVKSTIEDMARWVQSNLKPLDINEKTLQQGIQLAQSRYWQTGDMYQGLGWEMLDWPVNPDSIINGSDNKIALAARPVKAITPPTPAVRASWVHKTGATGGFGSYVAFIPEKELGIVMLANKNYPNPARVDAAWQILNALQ
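Enzyme, pH 7.0 phosphate. Compound titrations were pre-incubated with AmpC for 15 min at room temperature before nitrocefin (stock 800 uM) addition; product formation was recorded at 480 nm every 20 s for 4 min.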
* = called active by the depositor; ? = inconclusive; & = joins results of further samples; [ ] = remark or other dose. Potency means the concentration at half of the fitted maximal effect. The list is partial. The share of hits here may be higher or lower than overall.

SMILES | AmpC inh no det
COc1cccc(-c2nnc(SCC(N)=O)n2-c2ccc(Cl)cc2)c1 | 42%
Cc1c(NC(=O)c2cccc(NC(=O)c3ccco3)c2)cccc1C(=O)O | -5%
CCOC(=O)N1CCC(NC(=O)c2cccc3c2C(=O)N(CCOC)C3)CC1 | 24%
Cn1nnc2cc(C(=O)Nc3cccnc3)ccc21 | -11%
CCOC(=O)C1=C(N)OC2=C(C(=O)CC(C)(C)C2)C1c1ccco1 (centres undefined) | 8%
C=CCn1c(O)c(C(C)=NCc2cccnc2)c(=O)[nH]c1=O | -4%
Nc1nnc(SCC(=O)Nc2ccccc2N2CCOCC2)s1 | -4%
O=C(CSc1nnc(Cc2cc(=O)[nH]c(=O)[nH]2)n1-c1ccc(Cl)cc1)NCC1CCCO1 (centres undefined) | 7%
O=c1nc(NCc2ccco2)sc2ncccc12 | -10%
CN(C)C(=O)c1ccc(-c2cncnc2NCCN2CCOCC2)cc1 | -8%
Cc1cc(C)nc(Sc2ccc3nnnn3n2)n1 | -7%
COc1ccc(S(=O)(=O)N2CCCC2C(=O)Nc2nc3c(s2)CCCC3)cc1 (centres undefined) | 37%
CC(C)/C=C1\CCCCC1N(C)C(=O)NC(C)C (centres undefined) | 23%
Cc1ccc(S(=O)(=O)CC(=O)Nc2ccc(S(=O)(=O)Nc3onc(C)c3C)cc2)cc1 | -3%
CC(=O)C1C(c2cccc(F)c2)NC(=O)NC1(O)C(F)(F)F (centres undefined) | 4%
COc1ccc(CCC(=O)NCc2cnn(C)c2)cc1 | -3%
CC1CCCC(C)N1C(=O)c1cc(F)c(F)cc1Cl (centres undefined) | 4%
COC(=O)c1ccc(NC(=O)CNC(=O)C2CCCCC2)c(C)c1 | 4%
Cc1ccc(NS(=O)(=O)c2ccc3c(c2)c(=O)n(C)c(=O)n3C)cc1F | 0%
O=C(O)C1CCCN1S(=O)(=O)c1ccc2[nH]c(=O)c(=O)[nH]c2c1 (centres undefined) | -10%
COP(=S)(OC)SCN1C(=O)c2ccccc2C1=O | -14%
O=C(c1cccs1)N1CCC(c2ccccc2)C1 (centres undefined) | 7%
Cn1cccc1C(=O)N1CCC[C@@]2(CCN(Cc3cc(C(F)(F)F)cc(C(F)(F)F)c3)C2)C1 | 140%
Cc1nc2c(cc(Oc3ccc(S(=O)(=O)N4CCOCC4)cn3)c3ccsc32)s1 | 93%
Cc1cccc(C)c1-n1nnnc1S(=O)(=O)Cc1ccccc1Cl | 5%

Ordered by number of heavy atoms (highest first): part of the list above
SMILES | AmpC inh no det
Cn1cccc1C(=O)N1CCC[C@@]2(CCN(Cc3cc(C(F)(F)F)cc(C(F)(F)F)c3)C2)C1 | 140%
CCOC(=O)N1CCC(NC(=O)c2cccc3c2C(=O)N(CCOC)C3)CC1 | 24%
COc1cccc(-c2nnc(SCC(N)=O)n2-c2ccc(Cl)cc2)c1 | 42%
Cn1nnc2cc(C(=O)Nc3cccnc3)ccc21 | -11%
O=C(c1cccs1)N1CCC(c2ccccc2)C1 (centres undefined) | 7%

The listing continues.
SMILES | AmpC inh no det
CCN(C(=O)c1cccc(F)c1)c1ccccc1C | 15%
O=C(CSc1nc2cc(Cl)ccc2s1)N1CCN(C(=O)c2ccco2)CC1 | 96%
c1csc(CN2CCN(Cc3cccs3)C2c2cccs2)c1 | -2%
Cn1c(=O)c2c(nc(SCC(=O)NC3CCCCC3)n2C)n(C)c1=O | -6%
COc1ccc(Cn2c(C)nc3c(c2=O)c2nc4ccccc4nc2n3Cc2ccco2)cc1 | 49%
Cc1nn(CC(=O)Nc2ccc3c(c2)oc2ccccc23)c(=O)c2ccccc12 | -14%
COc1ccccc1N1CCN(C(=O)CN(Cc2ccc(Cl)cc2)S(C)(=O)=O)CC1 | 135%
Cc1cc(C(C)(C)CC(C)(C)C)ccc1OCCOCC[N+](C)(C)Cc1ccccc1 | 76%[12.8 µM]
COc1ccc(OCc2nnc(SCC(=O)O)n2N)cc1 | 5%
Cc1nnc(SCc2ccccc2F)n1NCc1cccs1 | 24%
COc1ccccc1C(=O)n1nc(-c2cccnc2)nc1N | 4µM*[single pt active]
O=c1[nH]c(=O)n(C2CCCCCC2)c(O)c1C=NC1CCN(Cc2ccccc2)CC1 | 72%
O=C(CCC(=O)c1cccs1)OCc1nc2ccccc2s1 | 12%
CS(=O)(=O)N1CCN(C(=O)c2cc(-c3cccs3)nc3ccccc23)CC1 | 83%
O=c1oc2ccccc2c(N2CCCCC2)c1CN1CCCCC1 | 1%
O=C(NCCc1ccco1)c1nn(Cc2ccccc2)c(=O)c2ccccc12 | 18%
O=C(c1ccccc1Br)N1CCN(c2ccccc2)CC1 | 25%
O=C(O)CCC(=O)C(=O)O | 0%[5.75 µM]
Cc1cccc(N2CCN(S(=O)(=O)c3ccc4c(c3)CCN4C(=O)CCC(=O)O)CC2)c1C | 77%
COc1ccc2nc(NC(=O)CCc3nc(C4=CCN(C)CC4)no3)sc2c1 | 100%
CCOc1ccc(-n2cc(C(=O)NCc3ccco3)c3cc(OC)c(OC)cc3c2=O)cc1 | 109%
COC(=O)C1=C(C)NC(=O)NC1C1CC=CCC1 (centres undefined) | 16%
CCC1CCCCN1CCCNC(=O)c1ccc(CS(=O)(=O)Cc2ccccc2F)o1 (centres undefined) | 15%
Cc1ccc(N(Cc2ccccc2)Cc2ccccc2)cc1 | 4%[5.75 µM]
CCCCCC(=O)Nc1ccc2oc(-c3cccnc3)nc2c1 | 10%

(further entries)
SMILES | AmpC inh no det
COC(=O)N1CCC2(CCCN(C(=O)Nc3ccccc3)C2)CC1 | -9%
CCCCCCN=CC1=C(O)C(C(=O)OC)C(C)(C)CC1=O (centres undefined) | 53%
O=C(c1ccc(F)cc1)C(CN1CCOCC1)c1ccccc1 (centres undefined) | 42%
CCCn1c(N2CCN(C(=O)N3CCCCC3)CC2)nc2ccccc21 | 71%
COc1ccc(OCC(=O)N2CCN(CC3CC4C=CC3C4)CC2)cc1 (centres undefined) | 44%
Cc1onc(-c2ccccc2Cl)c1C(=O)N1CCN(C(=O)c2ccco2)CC1 | 24%
C[N+](C)(C)CCCCCC[N+](C)(C)C | -14%[12.8 µM]
CCN(CC)c1ccc(CNC23CN4CN(CN(C4)C2)C3)cc1 | 0%
Cc1noc(C)c1C(=O)OCC(=O)NC(=O)NC12CC3CC(CC(C3)C1)C2 | -10%
CCOC(=O)c1nn(-c2ccc3c(c2)OCO3)cc1O | -11%
CS(=O)(=O)N1CCc2cc(C(=O)N3CCOCC3)ccc21 | -4%
CCOc1cc(N2CCOCC2)c(OCC)cc1NC(=O)CN1CCc2ccccc2C1 | 147%
COc1ccccc1C(=O)N1CCN(S(=O)(=O)c2ccccc2)CC1 | 29%
CCN(CC)S(=O)(=O)c1cccc2cc(C(=O)O)c(O)cc12 | -18%
CC1Cc2cc(/C(O)=C3/C(=O)C(=O)N(CCCn4ccnc4)C3c3ccco3)ccc2O1 (centres undefined) | -7%
O=C(Nc1ccccn1)Nc1cccs1 | -7%
CC(=O)Nc1cccc(NC(=O)c2cc(C)on2)c1 | 1%
O=C(CSCSCC(=O)Nc1ccc2c(c1)OCO2)Nc1ccc2c(c1)OCO2 | -16%
COc1cccc(CNC(=O)C2CCN(c3cnccn3)CC2)c1 | 35%
CCCCCCCCCCCCOS(=O)(=O)O | 12%&19%
O=C(O)c1ccccc1Nc1cccc(C(F)(F)F)c1 | -20%[12.8 µM]
COc1ccc(-c2noc(CCC(=O)N3CCN(c4cccc(C(F)(F)F)c4)CC3)n2)cc1 | 93%
Cc1ccc(S(=O)(=O)Nc2ccccc2C(=O)c2ccc(C)c(C)c2)cc1 | 3%[5.75 µM]
COCCCn1c(=N)c(C(=O)NCC2CCCO2)cc2c(=O)n3ccccc3nc21 (centres undefined) | -7%
CC(C)Oc1ccc(C2CC(=O)NC3=C2C(=O)CCC3)cc1 (centres undefined) | 7%

Rewritten with tabs: entries from further up.
compound	AmpC inh no det
CC1Cc2cc(/C(O)=C3/C(=O)C(=O)N(CCCn4ccnc4)C3c3ccco3)ccc2O1 (centres undefined)	-7%
O=C(Nc1ccccn1)Nc1cccs1	-7%
CC(=O)Nc1cccc(NC(=O)c2cc(C)on2)c1	1%

Continued.
SMILES | AmpC inh no det
Cc1ccc(S(=O)(=O)NCCC(=O)Nc2ccc3c(c2)OCO3)cc1 | -6%
Cc1cc(=O)[nH]c2c1c(=O)[nH]n2C1CC(C)N(C)CC1C (centres undefined) | -8%
CCOCCCNC(=O)N[C@@H](Cc1ccccc1)C(=O)OC | 0%
O=C(Nc1ccccc1N1CCN(C(=O)c2ccc(Cl)cc2)CC1)c1ccc2c(c1)OCO2 | 6%
Cn1nc(-c2ccc(Cl)cc2)c2cc(C(=O)NC3CC3)sc21 | 4µM*[single pt active]
COc1ccc(CNC(=O)[C@H](C)[C@@H]2C[C@@]2(C)[C@@H](NC(=O)OCc2ccccc2)c2ccccc2)cc1OC | 91%
O=S(=O)(Nc1ccc(Cc2ccncc2)cc1)N1CCCC1 | -3%
O=C(NC1CCCCC1)c1cc2nc(-c3ccco3)cc(C(F)(F)F)n2n1 | 56%
CN1CCN(c2ccc(NC(=O)C(C)(C)C)cc2)CC1 | -3%
COc1cccc(Nc2ncc3nc(-c4cn(C)c5ccccc45)c(=O)n(C[C@H]4CCCO4)c3n2)c1 | 4%
CC(=O)Oc1cc2oc(=O)cc(C)c2cc1OC(C)=O | -3%
Cc1ccccc1C(OCC(O)CN1CCCCC1CCO)c1ccccc1 (centres undefined) | 8%
Cn1cnnc1SCC(=O)N(Cc1ccc2c(c1)OCO2)C1(C(=O)NC2CCCCC2)CCCC1 | 73%
CCOCCCNC(=O)C1CC(=O)N(C2CCCC2)C1 (centres undefined) | -16%
Cn1c(Cn2nnc3ccccc32)nnc1SCC(=O)NCc1ccc2c(c1)OCO2 | -7%
CCC1Oc2ccccc2N(CC(=O)NCCN2C(C)CCCC2C)C1=O (centres undefined) | -1%
COc1ccc(-n2c(CSc3nc(C)cc(C)n3)nnc2SCC(=O)Nc2nccs2)cc1 | 36%
O=C(Nc1ncc2c(n1)CC(c1ccco1)CC2=O)c1ccccc1 (centres undefined) | -11%
CCC(=O)N1CCN(CCN=CC2=C(O)CC(c3cccs3)CC2=O)CC1 (centres undefined) | 16%
Cc1ccc(-c2cc(C(=O)O)n[nH]2)o1 | -14%
Nc1ccc(Oc2ccc(N)cc2)cc1 | -10%
O=C(CCCCn1c(=O)c2ccccc2n(Cc2ccc(F)cc2)c1=O)NCc1ccco1 | 41%
O=C(Nc1ccc(-c2noc(CCc3ccccc3)n2)cc1)c1cccnc1 | 98%
O=C(NCCN1CCOCC1)NC1(C(F)(F)F)Oc2ccc(Cl)cc2O1 (centres undefined) | 14%
CN(c1cccc(NC(=O)Nc2cccc(Cl)c2)c1)S(C)(=O)=O | ?

Pulled by compound from the list above, 7 records:
SMILES | AmpC inh no det
Cc1cc(=O)[nH]c2c1c(=O)[nH]n2C1CC(C)N(C)CC1C (centres undefined) | -8%
CN(c1cccc(NC(=O)Nc2cccc(Cl)c2)c1)S(C)(=O)=O | ?
O=S(=O)(Nc1ccc(Cc2ccncc2)cc1)N1CCCC1 | -3%
Nc1ccc(Oc2ccc(N)cc2)cc1 | -10%
O=C(Nc1ncc2c(n1)CC(c1ccco1)CC2=O)c1ccccc1 (centres undefined) | -11%
O=C(CCCCn1c(=O)c2ccccc2n(Cc2ccc(F)cc2)c1=O)NCc1ccco1 | 41%
O=C(NCCN1CCOCC1)NC1(C(F)(F)F)Oc2ccc(Cl)cc2O1 (centres undefined) | 14%

Next section
SMILES | AmpC inh no det
CCCn1c(C(O)c2cc(OC)ccc2OC)nc2ccccc21 (centres undefined) | 19%
CCOc1ccccc1N1C(=O)CC(Nc2ccc(N3CCOCC3)cc2)C1=O (centres undefined) | 16%
O=C(O)c1cc(-c2ccc(-c3ccc(-c4cc(C(=O)O)c5cc(Cl)ccc5n4)cc3)cc2)nc2ccc(Cl)cc12 | 15%[5.75 µM]
S=c1nc(-c2cccc(Br)c2)[nH][nH]1 | -24%
CC(=O)C1=C(C)NC(SCC(=O)c2ccc(Cl)cc2Cl)=C(C#N)C1c1ccco1 (centres undefined) | 0%
CCOC(=O)c1cccc(NC(=O)C2CCC(CNc3c(N4CCOCC4)c(=O)c3=O)CC2)c1 (centres undefined) | 94%
CCNC(=O)COc1ccc2ccccc2c1 | 6%
O=S(=O)(c1ccc(Cl)c(C(F)(F)F)c1)N1CCN(CC(O)COCC2CCCO2)CC1 (centres undefined) | 115%
Cc1ccc(-c2nnc(CSc3nc(C)nc4sc(C)c(C)c34)o2)cc1 | 9%
COc1cccc(-c2nc(=S)c3c(n2Cc2ccco2)CCCC3)c1 | 53%
CC(C(=O)NCC1(c2ccccc2)CCCC1)N1CCOCC1 (centres undefined) | 22%
CCOC(=O)C1=C(C)NC(C)=C(C(=O)OCC)C1c1ccc(OC)cc1 | 69%
CC1CCN(C(=O)CSc2ccc(-c3ccc(F)cc3)nn2)CC1 | 29%
O=C(C(F)C(F)(F)F)N1CCN(c2ccccc2)CC1 (centres undefined) | -1%
O=C(c1sccc1-n1cccc1)N1CCCC1 | 7%
COc1cccc(NC2CC(=O)N(CCc3ccccc3)C2=O)c1 (centres undefined) | 2%
c1ccc(C(c2nnnn2C2CCCCC2)N2CCc3ccccc3C2)nc1 (centres undefined) | 37%
Cc1noc(C)c1S(=O)(=O)N(CC(=O)N1CCCCCC1)c1ccc(C(C)C)cc1 | 45%
COc1ccccc1OC[C@H](O)CO | -10%[12.8 µM]
OC(Cc1cccnc1)(c1ccccc1)c1ccccc1 | 5%[5.75 µM]
COC(=O)CSc1nnc(CNc2ccc(Cl)cc2)n1Cc1ccccc1 | 129%

Entries shown so far that contain bromine:
SMILES | AmpC inh no det
O=C(c1ccccc1Br)N1CCN(c2ccccc2)CC1 | 25%
S=c1nc(-c2cccc(Br)c2)[nH][nH]1 | -24%
